Screening data: PubChem, National Center for Advancing Translational Sciences (NCATS)
VDR inhibitor = blocks the human vitamin D receptor | VDR-SRC2-3 peptide fluorescence polarization, 2 h | Potency, µM, for the others: max response, negative = inhibition, actives largely listed as inhibitors | 400,000 tested, 0.93% active | AID 504847; active = well fitted inhibition curve with a large enough effect; inconclusive = small, poorly fitted or top-dose-only effect, or another doubt; inactive = no such curve, though single readings can be large or run the other way; also: series mostly up to about 120 µM
Target sequence (P11473 whole entry, looked up): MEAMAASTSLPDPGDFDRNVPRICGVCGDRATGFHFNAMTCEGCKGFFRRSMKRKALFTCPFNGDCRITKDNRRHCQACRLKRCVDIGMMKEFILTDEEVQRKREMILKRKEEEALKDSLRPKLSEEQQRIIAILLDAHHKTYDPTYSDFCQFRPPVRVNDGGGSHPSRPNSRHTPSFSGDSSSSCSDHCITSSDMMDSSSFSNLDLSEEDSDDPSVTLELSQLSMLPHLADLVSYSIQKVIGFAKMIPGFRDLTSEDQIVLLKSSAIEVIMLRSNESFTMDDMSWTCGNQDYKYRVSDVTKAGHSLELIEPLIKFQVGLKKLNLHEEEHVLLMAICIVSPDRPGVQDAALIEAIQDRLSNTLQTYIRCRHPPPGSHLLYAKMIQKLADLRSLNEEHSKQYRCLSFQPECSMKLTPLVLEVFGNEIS
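Measured by FP: displacement of SRC2-3 coactivator peptide from VDR by library compounds, following a two-hour ambient incubation.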
Starred values were filed as active, the others as inactive; ? = inconclusive. % is scaled to controls: 0 for no effect and ±100 for the full control effect; potency is read from the fitted curve at half-maximal effect. Only part of the results is shown; count on the stated rates, not on these rows.

no.	Compound	VDR inhibitor
1	O=C(Nc1ccnn1C1CCN(C/C=C/c2ccccc2)CC1)c1cccc(F)c1	13%
2	COc1ccc(OC)c(/C=C/C(=O)Nc2ccc(C(=O)OCCC(C)C)cc2)c1	-4%
3	CCc1nc2ccccc2c(C(=O)NCc2ccccc2)c1C	-25%
4	O=C(/C=C/c1ccc(Cl)cc1)NC(=S)Nc1ccc(CN2CCOCC2)cc1	-10%
5	S=c1[nH]nc(CCCc2n[nH]c(=S)o2)o1	-9%
6	CCOc1ccccc1N1C(=O)c2ccc(C(=O)Nc3cccnc3)cc2C1=O	-3%
7	CCOC(=O)c1cccc(NC(=O)CSc2nnc(-c3ccncc3)n2CCCOC)c1	-17%
8	CC(=O)c1c(C)[nH]c(C(=O)OC2CCOC2=O)c1C (stereo unspecified)	1%
9	COc1ccc(CC(NC(C)=O)C(=O)NC2CCN(C(=O)c3ccccc3F)CC2)cc1 (stereo unspecified)	-7%
10	Cc1cccc(NC(=O)CSc2nnc(CNC(=O)c3ccco3)o2)c1	-7%
11	CCn1c(C)c2c(C)nnc(C)c2c1C	-3%
12	O=C1CN(C(=S)NC(=O)c2ccc(-c3ccccc3)cc2)CCN1	-7%
13	Cc1ccc(NC(=O)/C(=C/c2cccs2)NC(=O)c2ccco2)c(C)c1	-11%
14	O=C(Oc1ccccc1)c1ccc(COC(=O)c2cnccn2)cc1	3%
15	Cc1ccc(CNCc2ccc3c(c2)OCO3)c(C)c1	-2%
16	O=C1CN(CC(=O)Nc2ccc(Cl)cc2)CCN1	10%

Two entries from above, field by field:
7. CCOC(=O)c1cccc(NC(=O)CSc2nnc(-c3ccncc3)n2CCCOC)c1
  VDR inhibitor = -17%

8. CC(=O)c1c(C)[nH]c(C(=O)OC2CCOC2=O)c1C (stereo unspecified)
  VDR inhibitor = 1%

The results go on.
no.	Compound	VDR inhibitor
17	CCOC(=O)C1=C(C)NC(C)=C(C(=O)OCC)C1c1ccc([N+](=O)[O-])s1	-11%
18	COC(=O)c1ccc(CSc2nnc3ccccn23)o1	11%
19	COc1ccc(C2OC(=O)CC2C(=O)NC2CCCC(C)C2C)cc1OC (stereo unspecified)	13%
20	O=C(N/N=C/c1ccco1)c1ccc(OCc2ccccc2)cc1	-8%
21	O=C(CSc1ccc2c(c1)OCCO2)N1CCN(c2ccccc2)CC1	5%
22	CCOC(=O)c1sc(NC(=O)COc2ccc3c(c2)OCO3)nc1C	9%
23	CC(C)CCn1c(SCC(N)=O)nc2c1c(=O)n(C)c(=O)n2C	14%
24	O=C(NC1CCN(C(=S)Nc2ccc(F)cc2)CC1)C1CCCCC1	0%
25	CN1CCN(CC(C)(C)NS(=O)(=O)c2ccc(Cl)cc2)CC1	3%
26	Cc1c(NC(C)c2ccccc2O)c(=O)n(-c2ccccc2)n1C (stereo unspecified)	-6%
27	Cc1ccccc1C1=Nn2c(nnc2-c2ccco2)SC1	-2%
28	O=C(CCC(=O)Nc1ccccc1)N/N=C/c1ccncc1	-3%
29	CC(=O)c1csc(-c2ccccc2)n1	-1%
30	O=C(NCc1ccccn1)c1ccc(Cl)c(S(=O)(=O)N2CCCCCC2)c1	-1%
31	CCN(CC)S(=O)(=O)c1cc(NC(=O)C(CC(C)C)NC(N)=O)ccc1C (stereo unspecified)	-2%
32	COc1ccc(S(=O)(=O)N2CCCCC2C(=O)O)cc1 (stereo unspecified)	2%
33	COc1ccc(CC(=O)Nc2cc(S(=O)(=O)N3CCCC3)ccc2Cl)c(OC)c1	-4%
34	O=C1CN(C(=O)c2ccc(Cl)cc2Cl)C(c2ccc(F)cc2)c2cc(F)ccc2N1 (stereo unspecified)	-9%
35	Cn1c(N)c(C(=O)COC(=O)Cn2cc(C(F)(F)F)ccc2=O)c(=O)n(C)c1=O	4%
36	CC(C)(C)NC(=O)CN(C(=O)C1CSC(=O)C1)c1ccccc1F (stereo unspecified)	5%
37	CS(=O)(=O)N1CCC(NC(=O)Nc2ccc(OC(F)(F)F)cc2)CC1	-15%
38	O=C(COC(=O)C1=COCCO1)Nc1ccc(F)cc1	-11%
39	CC(OC(=O)c1cccs1)C(=O)NCC1CCCO1 (stereo unspecified)	2%
40	COc1ccc(-c2ccc3c(c2)S(=O)(=O)c2cccc(C(=O)NCCOc4ccccc4Cl)c2C3=O)cc1OC	-5%
41	O=C(c1ccccc1)C(Nc1ccccn1)c1ccccc1 (stereo unspecified)	-7%
42	COc1ccc(-c2cc3nc4ccccc4n3c(N)c2C#N)cc1	-2%
43	O=C(NCCc1c[nH]c2ccccc12)c1cccc(Br)c1	-7%
44	Cc1ccc(NC(=O)C2CC(=O)N(c3ccc4c5c(cccc35)CC4)C2)cc1 (stereo unspecified)	18%
45	CCOc1ccccc1-n1nnc(S(=O)(=O)c2ccc(C)cc2)c1N	6%
46	CCc1cc2c(COC(=O)c3c(C)noc3C)cc(=O)oc2cc1O	-31%
47	CCC(C)NS(=O)(=O)c1ccc(NS(C)(=O)=O)cc1 (stereo unspecified)	-15%
48	CCOC(=O)Cn1c(=O)oc2cc(S(=O)(=O)NCc3ccccn3)ccc21	8%
49	Cn1c(SCCOc2ccc(F)cc2)nnc1-c1ccncc1	-10%
50	COc1ccc(C2(SCC(N)C(=O)O)c3ccccc3-c3ccccc32)cc1 (stereo unspecified)	-3%
51	O=C(NCc1ccco1)C(c1cccs1)N(Cc1ccccc1)C(=O)Cn1nnc2ccccc21 (stereo unspecified)	-12%
52	CCOC(=O)c1sc(N)c(C(=O)OC)c1C	-1%
53	Cc1ccc(S(=O)(=O)CCC(=O)OCC(=O)N(Cc2ccccc2)C(C)C)cc1	-12%
54	Cc1cc(Oc2ccc(OCC(N)=O)nn2)nc(Cl)n1	11%
55	COc1ccc(N2C(=O)Cc3cc(OC)c(OC)cc3C2c2ccc(F)cc2)cc1 (stereo unspecified)	8%
56	Cc1cccc(CNC(=O)CCCn2nc(C)c3c(C)n(-c4ccccc4)nc3c2=O)c1	-18%
57	COc1cc(OC)cc(C(=O)Nc2ccc(N3CCN(C(=O)c4cccs4)CC3)cc2)c1	-1%
58	O=C(CCNC(=O)c1ccc(Cl)cc1)NCc1ccco1	-8%
59	COc1ccccc1C(=O)Nc1ccc2c(c1)C(=O)NC2=O	4%
60	NS(=O)(=O)c1cccc(NC(=O)CSc2ncc(C(F)(F)F)cc2Cl)c1	-14%
61	Cc1ncc(C23CC4CC(CC(C4)C2)C3)[nH]1	-5%
62	CCOC(=O)N1CCN(C(=O)c2cn(-c3ccc(C)c(C)c3)c(=O)c3ccccc23)CC1	3%
63	CC1(C)NC(=O)N(CCOc2cccc(Cl)c2Cl)C1=O	-7%
64	O=C(CCC1CCCN(C(=O)c2cccc(F)c2)C1)N1CCN(c2ccccn2)CC1 (stereo unspecified)	7%
65	COc1ccc(-c2nn(-c3ccccc3)cc2/C=C(\CC(=O)O)c2nc3ccccc3s2)cc1OC	-8%
66	Cc1ccc([N+](=O)[O-])cc1NC(=O)C(C)Sc1nnc(C)n1CC1CCCO1 (stereo unspecified)	-3%
67	CCCc1c(C)[nH]c2nc3ccccc3n2c1=O	-24%
68	O=C1Nc2ccccc2C1=O	-8%
69	O=c1[nH]c2cc(Cl)c(Br)cc2o1	-8%
70	Cc1cccc(NC(=O)c2ccc(S(=O)(=O)NCc3ccco3)cc2)n1	8%
71	COC(=O)c1ccc(NC(=O)c2ccc(OC(C)=O)c(OC)c2)cc1	7%
72	O=C(CSc1nnc(-c2ccncc2)n1Cc1ccco1)Nc1ccccc1Cl	11%

(continued)
no.	Compound	VDR inhibitor
73	CCOC(=O)C1=CN(Cc2ccco2)S(=O)(=O)NC1CC (stereo unspecified)	?
74	C[C@@H](C(=O)OCC(=O)NCCc1ccc(S(N)(=O)=O)cc1)N1C(=O)C2CCCCC2C1=O (stereo partly specified)	-5%
75	CCOC(=O)c1ccc(NC(=O)c2sc3ccccc3c2Cl)cc1	-16%
76	O=C(C1CCC(=O)N(C2CC2)C1)N1CCN(c2cccc(Cl)c2)CC1 (stereo unspecified)	-22%
77	CCOC(=O)c1c(C)[nH]c(C(=O)OCC(=O)c2ccccc2)c1C	-3%
78	CC(C(=O)Nc1ccc(Br)cc1)N(C)CC(=O)NCc1ccco1 (stereo unspecified)	5%
79	O=C(COc1ccc2c(c1)CCC2)N1CCN(c2ccc(F)cc2)CC1	-6%
80	O=C1Nc2c(c(=O)[nH]c(=O)n2Cc2ccccc2)C1(NS(=O)(=O)c1ccccc1)C(F)(F)F (stereo unspecified)	4%

Sorted by value in VDR inhibitor (highest first): seven of the compounds above
no.	Compound	VDR inhibitor
78	CC(C(=O)Nc1ccc(Br)cc1)N(C)CC(=O)NCc1ccco1 (stereo unspecified)	5%
80	O=C1Nc2c(c(=O)[nH]c(=O)n2Cc2ccccc2)C1(NS(=O)(=O)c1ccccc1)C(F)(F)F (stereo unspecified)	4%
77	CCOC(=O)c1c(C)[nH]c(C(=O)OCC(=O)c2ccccc2)c1C	-3%
74	C[C@@H](C(=O)OCC(=O)NCCc1ccc(S(N)(=O)=O)cc1)N1C(=O)C2CCCCC2C1=O (stereo partly specified)	-5%
79	O=C(COc1ccc2c(c1)CCC2)N1CCN(c2ccc(F)cc2)CC1	-6%
75	CCOC(=O)c1ccc(NC(=O)c2sc3ccccc3c2Cl)cc1	-16%
76	O=C(C1CCC(=O)N(C2CC2)C1)N1CCN(c2cccc(Cl)c2)CC1 (stereo unspecified)	-22%

(further entries)
no.	Compound	VDR inhibitor
81	COc1cc(/C=C/c2[nH]c(=O)[nH]c(=O)c2[N+](=O)[O-])cc(OC)c1O	?
82	Cc1ccc(NC(=S)Nc2ccc3[nH]c(=O)[nH]c3c2)cc1C	-9%
83	O=C(CSc1nccc(=O)[nH]1)N1CCCc2ccccc21	-14%
84	CC1CCCCC1NC(=O)CCCCn1c(=O)[nH]c2ccsc2c1=O (stereo unspecified)	-14%
85	O=C(COC(=O)Cc1ccc(Br)cc1)NC12CC3CC(CC(C3)C1)C2	-4%
86	CC1CCCC(C)N1CCNC(=O)CCc1nnc2n(Cc3ccccc3)c(=O)c3ccccc3n12 (stereo unspecified)	-4%
87	O=C(Nc1ccccc1O)c1ccc2c(c1)C(=O)N(N1C(=O)c3ccccc3C1=O)C2=O	2%
88	CCOC(=O)c1c(S(=O)(=O)N2CCC(C(=O)NCc3cccc(OC)c3)CC2)c(C)n(C)c1C	8%
89	CC(=O)Nc1ccc(S(=O)(=O)Oc2ccc(C(=S)N3CCC(O)CC3)cc2)cc1	-7%
90	Cn1cc(-c2nc3cnc(Oc4cccc(Cl)c4)nc3n(C3CC3)c2=O)c2ccccc21	3%
91	COC(=O)/C(=C1/Oc2cc3c(cc2S1)OCO3)C(F)(F)F	8%
92	COCCNC(=O)c1c(CSc2ccc(F)cc2)noc1C(=O)NCc1ccccc1	1%
93	CCc1nnc(NC(=O)CSc2nnc(-c3ccccc3OC)n2-c2ccc(C)cc2)s1	-5%
94	CN(CC(=O)Nc1cccc(F)c1)C(=O)/C=C/c1cn(Cc2ccccc2)nc1-c1cccnc1	-6%
95	C=CCc1ccc(OCCOCCN(C)C)c(OC)c1	4%
96	Cc1cc2ccccc2n2c(SCC(=O)NCc3cccs3)nnc12	14%
97	COc1ccc(NC(=O)Cn2cnc3c(cnn3C(C)(C)C)c2=O)cc1OC	-10%
98	COc1ccc(C2=NN(C(=O)c3cccs3)C(O)(C(F)(F)F)C2)cc1 (stereo unspecified)	-3%
99	Cc1ccc(CSC2=NCCN2C(=O)c2ccco2)cc1	18%
100	CC(C)C[C@H](NC(=O)C1CC(=O)N(c2ccc3c(c2)OCO3)C1)C(=O)NC1CCCCC1 (stereo partly specified)	1%
101	O=C(NC1CCCCC1)c1ccc2c(c1)N(Cc1ccc(Cl)cc1)C(=O)c1ccccc1S2=O (stereo unspecified)	-12%
102	O=C(COC(=O)c1cccc(S(=O)(=O)N2CCOCC2)c1)Nc1nc(-c2ccccc2Cl)cs1	-1%
103	Cc1ccc(NS(=O)(=O)c2cccc(C(=O)NCc3ccccn3)c2)cc1	-4%
104	COC(=O)C1(C(F)(F)F)C2C=CC(C2)N1S(=O)(=O)c1ccc(C)cc1 (stereo unspecified)	14%
105	CCc1nc(CNC(=O)C2CCC(=O)N(CCc3ccc(OC)cc3)C2)cs1 (stereo unspecified)	4%
106	O=C1CC(c2ccc3c(c2)OCO3)Sc2nc3ccccc3n21 (stereo unspecified)	-12%
107	CCOC(=O)C1CCN(S(=O)(=O)c2ccc(C)cc2)CC1	6%
108	Cc1ccccc1C(=O)Nc1nnc(SCc2cc(=O)n3ccccc3n2)s1	-3%
109	O=c1[nH]c(SCc2ccccc2[N+](=O)[O-])nc2nc[nH]c12	-9%
110	O=C(c1cn(-c2ccccc2)nc1-c1cccs1)N(CCO)Cc1ccccc1	-24%
111	C/C(=N/NC(=O)Cc1ccccc1)c1ccc(C)s1	15%
112	CSc1nc(N2CCCC2)c2c(c1C#N)CC(C)(C)OC2	3%
113	CC(=O)N1CCN(c2ccccc2NC(=O)c2ccc(Br)o2)CC1	-1%
114	CC1SC(=Nc2ccccc2)N(S(=O)(=O)c2ccccc2)C1=O (stereo unspecified)	-6%
115	O=C1c2ccccc2[C@@H]2C[C@@H](O)[C@H](Nc3ccccc3-c3ccccc3)CCN12	8%
116	CCCN(CCC)Cc1cc(=O)oc2cc3c(cc12)CCC3	-6%
117	CC[C@@]1(C(=O)OC)N[C@H](CN(C)C(=O)COc2ccccc2)[C@@H]2C(=O)N(Cc3ccccc3)C(=O)[C@@H]21	-7%
118	COc1ccc(CCn2c(C)cc(C(=O)CSc3nc(N)cc(=O)[nH]3)c2C)cc1	-9%
119	c1ccc(CCN2CCN=C2Nc2ccccc2)cc1	-4%
120	Cc1ccc(S(=O)(=O)n2nc(-c3ccc(Cl)cc3)nc2NCc2ccccc2)cc1	0%
121	CN(C)S(=O)(=O)N1CCN(CC(O)COc2ccc3cc(Br)ccc3c2)CC1 (stereo unspecified)	0%
122	CCOc1ccc2c(c1)n([O-])c1c([n+]2=O)CCCC1	-11%
123	Cc1nn(CCC(=O)NC(C)C)c(=O)c2nn(-c3ccccc3)c(C)c12	9%
